From PubChem
SmPrx2 inh – Schistosoma Mansoni Peroxiredoxins (Prx2). S. mansoni Prx2 activity coupled to TGR/GSH (TGR is thioredoxin glutathione reductase), NADPH fluorescence loss, qHTS; some inactives read as strong as hits. 65,000 tested, 0.07% active. Potency, µM. Schistosoma mansoni peroxiredoxin 2 (Prx2); active means full or partial inhibition curve with a strong effect at the top dose; inconclusive means weaker partial or single-point curve; inactive means no accepted curve; also: series up to 57 µM; many of its hits are not listed in these tables
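Prx2 activity was followed as the loss of NADPH fluorescence (ex 365/em 450 nm), read every 30 sec for 8 min after H2O2 start. The enzyme mix (50 nM Prx2, 25 nM TGR, GSH, NADPH; pH 7.4 phosphate buffer) was incubated with compound for 15 min at room temperature first.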
Anthrax LT inh – qHTS Assay for Anthrax Lethal Toxin Internalization; Potency, µM (top dose mostly 40 µM), for the others: top-dose activity change, negative = inhibition, most hits filed as inhibitors; AID 912, 2007; Cells, anthrax lethal toxin internalization, FRET ratio (460/530); 70,000 tested, 0.67% active; active = well fitted falling ratio curve with the 530 nm signal flat; inconclusive = other ratio curves, or a change in one channel alone; inactive = flat curves in the ratio and both channels; the % refers to the ratio; also: % is scaled to controls: 0 for no effect and ±100 for the full control effect; nearly all actives have a fitted effect of over 50% in size; tested in ME-180 cells; beta-lactamase reporter
The depositor's hits bear a star; & = joins results of further samples; [ ] = another dose, or the depositor's remark. Potency is read from the fitted curve at half-maximal effect. An excerpt; the hit share may differ from the screen's.

Results for Cc1cc2cc(C(c3nnnn3Cc3ccco3)N3CCc4ccccc4C3)c(=O)[nH]c2cc1C (configuration not stated) ?
SmPrx2 inh: >57; Anthrax LT inh: inconclusive

How did CCc1cc(=O)oc2cc(OCC(=O)N(CC)CC)c(Cl)cc12 do in these assays?
SmPrx2 inh: >57; Anthrax LT inh: 3%

What do the screens show for `CC(c1ccccc1)N1C(=O)c2ccc(C(=O)NCc3ccco3)cc2C1=O` (configuration not stated)?
SmPrx2 inh: >57; Anthrax LT inh: -27%

Results for Nc1ccccc1[N+](=O)[O-] ?
Anthrax LT inh: -6%

What do the screens show for `Cc1ccc(CCNC(=O)CS(=O)Cc2nc(-c3cccc(C)c3)oc2C)cc1` (configuration not stated)?
SmPrx2 inh: >57; Anthrax LT inh: -27%

Results for NC(=O)CSc1nc2sc3c(c2c2ncnn12)CCCC3 ?
SmPrx2 inh: >57; Anthrax LT inh: 0%

How did Cc1ccc2[nH]c(=O)c(CN(Cc3nnnn3C3CCCC3)C3CCCCC3)cc2c1 do in these assays?
SmPrx2 inh: >57; Anthrax LT inh: 5%

Results for CC1CCN(S(=O)(=O)c2ccc(NC(=O)CN3CCN(C)CC3)cc2)CC1 ?
SmPrx2 inh: >57; Anthrax LT inh: 1%

How did COc1ccc(Nc2ncc3c(n2)CC(c2ccccc2)CC3=O)cc1 (configuration not stated) do in these assays?
SmPrx2 inh: >57; Anthrax LT inh: 10%

Results for CC(C)CCn1nnnc1C(c1ccc(N(C)C)cc1)N1CCN(C(=O)c2ccco2)CC1 (configuration not stated) ?
SmPrx2 inh: >57; Anthrax LT inh: 2%

How did c1ccc(-c2csc(N3CCN(c4ccccn4)CC3)n2)cc1 do in these assays?
SmPrx2 inh: >57; Anthrax LT inh: inconclusive

What do the screens show for `CCCc1nc(S(=O)(=O)Cc2ccc(Cl)cc2Cl)n[nH]1`?
SmPrx2 inh: >57

What do the screens show for `COc1ccc(Cl)cc1NC(=O)CSc1nnc(COc2ccccc2)n1N`?
SmPrx2 inh: >57; Anthrax LT inh: -13%

How did COC(=O)c1cc(COc2ccc3ccc(=O)oc3c2)c(C)o1 do in these assays?
SmPrx2 inh: >57; Anthrax LT inh: inconclusive

How did Cc1nnc2ccc(N3CCN(c4ccccn4)CC3)nn12 do in these assays?
SmPrx2 inh: >57; Anthrax LT inh: -4%

Results for CCOC(=O)N1CCN(C(=O)c2ccc3c(=O)n(-c4ccc(OC)cc4OC)c(=S)[nH]c3c2)CC1 ?
SmPrx2 inh: >57; Anthrax LT inh: -1%

What do the screens show for `CN1CCN(c2ncc3nc(-c4ccc(Cl)cc4)c(=O)n(Cc4ccc(F)cc4)c3n2)CC1`?
SmPrx2 inh: >57; Anthrax LT inh: inconclusive

Results for N[C@@]12CCc3nonc3[C@]1(O)CC(c1ccccc1)=[N+]2[O-] ?
SmPrx2 inh: >57; Anthrax LT inh: -12%

How did Cc1ccc(C(=O)C2CCN(CC(=O)Nc3ccc4c(c3)OCCO4)CC2)cc1 do in these assays?
SmPrx2 inh: >57; Anthrax LT inh: -12%

What do the screens show for `Clc1c(-c2nnc3n2CCC3)sc2ccccc12`?
SmPrx2 inh: >57; Anthrax LT inh: 5%

Not a retest: four of the compounds above.
Results for Cc1cc2cc(C(c3nnnn3Cc3ccco3)N3CCc4ccccc4C3)c(=O)[nH]c2cc1C (configuration not stated) ?
SmPrx2 inh: >57; Anthrax LT inh: inconclusive

How did CCc1cc(=O)oc2cc(OCC(=O)N(CC)CC)c(Cl)cc12 do in these assays?
SmPrx2 inh: >57; Anthrax LT inh: 3%

What do the screens show for `CC(c1ccccc1)N1C(=O)c2ccc(C(=O)NCc3ccco3)cc2C1=O` (configuration not stated)?
SmPrx2 inh: >57; Anthrax LT inh: -27%

Results for Nc1ccccc1[N+](=O)[O-] ?
Anthrax LT inh: -6%

Fetched one by one from above:
How did Cc1ccc2[nH]c(=O)c(CN(Cc3nnnn3C3CCCC3)C3CCCCC3)cc2c1 do in these assays?
SmPrx2 inh: >57; Anthrax LT inh: 5%

What do the screens show for `Cc1ccc(CCNC(=O)CS(=O)Cc2nc(-c3cccc(C)c3)oc2C)cc1` (configuration not stated)?
SmPrx2 inh: >57; Anthrax LT inh: -27%

Further results
What do the screens show for `CNC(=O)C1CCCN1S(=O)(=O)c1ccc(OC)cc1` (configuration not stated)?
SmPrx2 inh: >57; Anthrax LT inh: 0%

What do the screens show for `CC1(C)OC(=O)C2(Cc3ccccc3N3CCCCC32)C(=O)O1` (configuration not stated)?
SmPrx2 inh: >57; Anthrax LT inh: 27%

Results for O=C(CSc1nnc(C2CC2)n1Cc1ccccc1)N1CCN(S(=O)(=O)c2ccccc2)CC1 ?
SmPrx2 inh: >57; Anthrax LT inh: inconclusive

What do the screens show for `CC(CCO)Nc1nc2c(c(=O)n(C)c(=O)n2C)n1Cc1cccc(Br)c1` (configuration not stated)?
SmPrx2 inh: >57; Anthrax LT inh: 5%

What do the screens show for `CCCOc1ccccc1N1C(=O)CC(N2CCOCC2)C1=O` (configuration not stated)?
Anthrax LT inh: -13%

Results for COC(=O)[C@@H]1CC[C@H](C)[C@@H](c2ccc(C)cc2)N1C(=O)c1ccc(/C=N\O[C@@H](C)c2cc(-c3c(C)cc(C)cc3C)no2)cc1 ?
Anthrax LT inh: 13%[8 µM]

What do the screens show for `CCOC(=O)c1ccc(Nc2ccc(-c3ccc(OC)c(OC)c3)nn2)cc1`?
SmPrx2 inh: >57; Anthrax LT inh: inconclusive

How did Cc1nc(SCC(=O)Nc2cc(C)on2)c2c3c(sc2n1)CCCC3 do in these assays?
SmPrx2 inh: >57; Anthrax LT inh: -2%

Results for Cc1cc(Cl)ccc1OCCCC(=O)Nc1cccnc1 ?
SmPrx2 inh: >57; Anthrax LT inh: inconclusive

What do the screens show for `Cc1cccc2sc(N)nc12`?
Anthrax LT inh: -11%

Results for O=C(CSc1nc2c(c(=O)n1-c1ccc(F)cc1)SCC2)N1CCCC1 ?
SmPrx2 inh: >57; Anthrax LT inh: 14%

What do the screens show for `CC(C)Oc1ccc(C(=O)Nc2ccc(N3CCCC3)cc2)cc1`?
Anthrax LT inh: -2%

How did O=C(c1nsc(Cl)c1Cl)N1CCCCC1 do in these assays?
Anthrax LT inh: inconclusive

What do the screens show for `CC(Oc1ccc(NC(=O)c2ccco2)cc1)C(=O)N1c2ccccc2CC1C` (configuration not stated)?
SmPrx2 inh: >57; Anthrax LT inh: -6%

What do the screens show for `O=C(COc1ccc(S(=O)(=O)NCCc2ccccc2)cc1)N1CCCC1`?
SmPrx2 inh: >57; Anthrax LT inh: -4%

How did Cc1cccc(C)c1Nc1nc2ccccc2o1 do in these assays?
SmPrx2 inh: >57; Anthrax LT inh: -23%

Results for Cc1noc(C)c1C(=O)OCC(=O)NCCc1ccc(Cl)cc1 ?
SmPrx2 inh: >57; Anthrax LT inh: -21%

What do the screens show for `Cn1c(=O)cc(SCC(=O)NCc2cccnc2)c2ccccc21`?
SmPrx2 inh: >57; Anthrax LT inh: 0%

How did CCN(CC)CCNC(=O)c1cn(CC)c2ccc(S(=O)(=O)N(C)C)cc2c1=O do in these assays?
SmPrx2 inh: >57; Anthrax LT inh: -5%

What do the screens show for `COc1cccc(CNC(=O)c2cc3ccccn3n2)c1`?
SmPrx2 inh: >57; Anthrax LT inh: 5%

Results for CCOC(=O)CCC(=O)OCC(=O)NC(C)C1CC2CCC1C2 (configuration not stated) ?
SmPrx2 inh: >57; Anthrax LT inh: -5%

What do the screens show for `c1ccc2c(CNCCN3CCOCC3)cccc2c1`?
SmPrx2 inh: >57; Anthrax LT inh: 16%

Results for COc1ccc(C(=O)CCN(C)C)c2ccccc12 ?
SmPrx2 inh: >57; Anthrax LT inh: 2%[8 µM]

Results for Cc1ccccc1NS(=O)(=O)c1cc(C(=O)N2CCCC2)ccc1C ?
SmPrx2 inh: >57; Anthrax LT inh: 10%

What do the screens show for `COc1ccc(C(=O)CN2C(=O)NC3(CCCc4ccccc43)C2=O)cc1OC` (configuration not stated)?
SmPrx2 inh: >57; Anthrax LT inh: 2%

What do the screens show for `COc1ccc(/C(O)=C2/C(=O)C(=O)N(CCCN(C)C)C2c2ccc(Cl)cc2)cc1OC` (configuration not stated)?
Anthrax LT inh: -6%

What do the screens show for `O=C(NCc1ccco1)c1nc2ncccn2n1`?
SmPrx2 inh: >57; Anthrax LT inh: 6%

How did Cc1nnc(C)n1/N=C/c1cccc(Oc2ccccc2)c1 do in these assays?
SmPrx2 inh: >57; Anthrax LT inh: 1%

Results for COc1cc(SC)ccc1C(=O)N1CCCCCC1 ?
SmPrx2 inh: >57; Anthrax LT inh: -12%

Results for N=c1ccn(Cc2ccc(Cl)cc2)cc1 ?
SmPrx2 inh: >57; Anthrax LT inh: 6%

Results for COc1ccc(-c2nnc(SCc3nnc(-c4ccccc4)o3)n2-c2ccccc2)cc1 ?
Anthrax LT inh: inconclusive

Results for Brc1ccc(-c2nnc3sc(CNC4CCCC4)cn23)cc1 ?
SmPrx2 inh: >57; Anthrax LT inh: -11%

What do the screens show for `COc1ccccc1NC(=O)c1cc(S(=O)(=O)N2CCC3(CC2)OCCO3)ccc1F`?
SmPrx2 inh: inconclusive; Anthrax LT inh: -9%

What do the screens show for `O=S1(=O)N=C2CCCCCN2C(c2ccncc2)N1` (configuration not stated)?
SmPrx2 inh: >57; Anthrax LT inh: -18%

Results for N#CC(C(=O)CCN1C(=O)C2CC=CCC2C1=O)c1nc2ccccc2[nH]1 (configuration not stated) ?
SmPrx2 inh: >57; Anthrax LT inh: inconclusive

What do the screens show for `CC1=CC(=C2C(=O)c3ccccc3C2=O)C=C(C)O1`?
SmPrx2 inh: >57; Anthrax LT inh: 5%

How did CCOc1ccccc1NC(=O)Cn1cnc2c(cnn2-c2ccc(C)c(C)c2)c1=O do in these assays?
SmPrx2 inh: >57; Anthrax LT inh: 2%

How did CC1CCc2c(sc(N)c2C(N)=O)C1 (configuration not stated) do in these assays?
Anthrax LT inh: 5%

What do the screens show for `O=C(Nc1ccn(Cc2ccc(Cl)cc2)n1)c1ccc2c(c1)OCO2`?
SmPrx2 inh: >57; Anthrax LT inh: -8%

How did N#Cc1cccc(-c2nc(N3CCNCC3)c3ccccc3n2)c1 do in these assays?
SmPrx2 inh: >57; Anthrax LT inh: 2%

What do the screens show for `COC(=O)CS(=O)(=O)c1ccc2c(c1)CC(=O)N2`?
SmPrx2 inh: >57; Anthrax LT inh: 13%

Results for O=C(Nc1ccc2nn(-c3ccccc3)nc2c1)c1cccs1 ?
SmPrx2 inh: >57; Anthrax LT inh: inconclusive

What do the screens show for `Cc1cc(C)n2nc(SCc3cc(=O)n4ccccc4n3)nc2n1`?
SmPrx2 inh: >57; Anthrax LT inh: -1%

How did CC(O)/C=C/c1cccc[n+]1C (configuration not stated) do in these assays?
SmPrx2 inh: >57; Anthrax LT inh: inconclusive

How did COc1ccc(-c2cn3ccccc3n2)cc1OC do in these assays?
SmPrx2 inh: >57; Anthrax LT inh: -13%

What do the screens show for `C=CCNC(=O)CN1CCC(O)(c2ccc(F)cc2)CC1`?
SmPrx2 inh: >57; Anthrax LT inh: -6%

How did O=P(COCCO)(c1ccccc1)c1ccccc1 do in these assays?
SmPrx2 inh: >57

Results for C[C@@]1(C(=O)O)NCCc2cc(O)c(O)cc21 ?
SmPrx2 inh: >26; Anthrax LT inh: inconclusive

What do the screens show for `COc1ccc(C(=O)Nc2ccc(S(=O)(=O)N3CCCCC3)cc2)cc1OC`?
SmPrx2 inh: >57; Anthrax LT inh: -8%

How did O=C(CN1CCCCCC1)Nc1cccc2c1OCO2 do in these assays?
SmPrx2 inh: >57; Anthrax LT inh: 1%

What do the screens show for `C[C@@](N)(Cc1ccc(O)cc1)C(=O)O`?
SmPrx2 inh: >57&>57; Anthrax LT inh: 0%&-3%

What do the screens show for `Cc1ccc(C)n1C1CCS(=O)(=O)C1` (configuration not stated)?
SmPrx2 inh: >57; Anthrax LT inh: 0%

How did C[C@@H](C(=O)Nc1ccc2ccccc2c1)[C@H]1C[C@]1(C)[C@H](NS(=O)(=O)c1ccc2ccccc2c1)c1ccccc1 do in these assays?
SmPrx2 inh: >11; Anthrax LT inh: inconclusive

How did CCCn1c(C)nc2c(N3CCCN(Cc4ccccc4)CC3)nc(C)nc21 do in these assays?
Anthrax LT inh: -4%

Results for COc1cc(SC)ccc1C(=O)NCCCOC(C)C ?
SmPrx2 inh: >57; Anthrax LT inh: -10%

What do the screens show for `COc1cc2nc(CN(C)CC(=O)Nc3ccc(N4CCOCC4)cc3)[nH]c(=O)c2cc1OC`?
SmPrx2 inh: >57; Anthrax LT inh: 8%

Results for COc1cccc(CNC(=O)Cn2cc3c(n2)CCCCC3)c1 ?
SmPrx2 inh: >57; Anthrax LT inh: 1%

What do the screens show for `COCC(=O)N1CCC2(CCCN(C(=O)Nc3ccccc3)C2)CC1`?
SmPrx2 inh: >57; Anthrax LT inh: 1%

What do the screens show for `Cc1nc2cnc(Nc3ccccc3)nc2n(C2CC2)c1=O`?
SmPrx2 inh: >11; Anthrax LT inh: 4%

How did CCOC(=O)c1[nH]nc2c1C(=O)N(CC)C2=O do in these assays?
SmPrx2 inh: >57; Anthrax LT inh: inconclusive

Filtered by structure, the compounds so far with a cyano group.
Results for N#CC(C(=O)CCN1C(=O)C2CC=CCC2C1=O)c1nc2ccccc2[nH]1 (configuration not stated) ?
SmPrx2 inh: >57; Anthrax LT inh: inconclusive

How did N#Cc1cccc(-c2nc(N3CCNCC3)c3ccccc3n2)c1 do in these assays?
SmPrx2 inh: >57; Anthrax LT inh: 2%
